VACV E9 pol inh = vaccinia E9 polymerase processive synthesis inhibitors, primary screen, biochemical, absorbance; Vaccinia virus DNA polymerase (E9) processive complex; in vitro processive DNA synthesis, absorbance read-out; hits give low values; some inactives read as strong as hits; AID 493162, 2011; 46,000 tested, 0.94% active; normalized absorbance, % (test concentration not listed);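 active = replicate mean up to 90% and picked by the depositor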;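 note: 100% = median of the test wells of a plate; 100 nL library stock went into each well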
Active calls of the source: *; & = joins results of further samples. Not all compounds are listed; rates above refer to the full screens.

Molecule | VACV E9 pol inh
Cc1ccccc1S(=O)c1ccccc1C(=O)O (stereo not given) | 87.9
COc1ccc(-c2nc3cc(C)ccc3o2)cc1 | 100.0
CC(NC(=O)/C=C1\Sc2ccccc2NC1=O)c1ccccc1 (stereo not given) | 89.1
CC(C)(C)C(=O)Nc1nnc(-c2ccc3c(c2)CCCC3)o1 | 88.3
CCOc1ccc(/C=C2\SC(=S)N(CC(=O)N3CCCc4ccccc43)C2=O)cc1 | 100.3
C=CCc1ccccc1OCC(O)Cn1c2ccccc2c2ccccc21 (stereo not given) | 100.6
CC1Oc2ccccc2C=C1/C=C(\C#N)c1nc2ccccc2c(=O)[nH]1 (stereo not given) | 107.0
N#CCCS(=O)(=O)c1ccc(N)cc1 | 106.0
O=C(CSc1nnc2ccc3ccccc3n12)NCC1CCCO1 (stereo not given) | 99.5
COC(=O)[C@@H]1CC(C)=C(C)C[C@H]1C(=O)OC | 109.3
OCc1cc2c(cc1Br)OCO2 | 89.9
O=C(CCCn1nc(-c2ccccc2)c2cc(Cl)ccc21)NCCc1ccccc1 | 98.6
Cc1nn(-c2ccccc2)c2sc(C(=O)O)cc12 | 98.2
CCOC(=O)C1=C(NN(C)c2ccc(OC)cc2)CN(C(=O)c2ccccc2)C1 | 100.1
C/C(=N\N1C(=O)c2ccccc2NC12CCCCC2)c1ccccc1O | 100.1

Other results follow:
Molecule | VACV E9 pol inh
Cc1cc(Oc2cc(C#N)c3ccccc3n2)ccc1Cl | 100.2
O=C(O)CCn1nc(-c2ccc(F)cc2)ccc1=O | 91.2
Cc1nn(C)c(C)c1Nc1n[nH]c(N)n1 | 104.9
Cc1ccc2nc(NC(=O)c3ccc(F)cc3)sc2c1 | 98.9
CC(=S)N1CCN(C(C)=S)CC1 | 97.0
CS(=O)(=O)CS(=O)(=O)C1=C(N2CCOCC2)C2CCN1CC2 | 100.0
COc1cc(OC)c(N(C)C(=O)c2ccc3c(=O)n4c(nc3c2)CCCCC4)cc1Cl | 104.8
CC(C)C1(C)N=C(c2ncccc2C(=O)O)NC1=O (stereo not given) | 107.9&99.0
CCOc1ccc(NC(=O)NS(=O)(=O)c2ccc(C)cc2)cc1 | 100.3
O=C(CSC1=NCCS1)NC(=O)c1ccccc1 | 99.9
Cc1cc(OC(=O)c2ccccc2)n(CCC#N)n1 | 100.6
O=C(c1ccc(C(=O)N2CCc3ccccc3C2)cc1)N1CCc2ccccc2C1 | 96.7
O=C(Cc1ccccc1)N1CCCc2ccccc21 | 100.1
COC(C)n1cc(Br)c(=O)[nH]c1=O (stereo not given) | 100.3
Cc1nc(Nc2ccccc2)sc1C(=O)c1cc2ccccc2s1 | 96.0

Remaining list, next part
Molecule | VACV E9 pol inh
CCC1CCCCN1C(=O)CSCc1ccco1 (stereo not given) | 102.9
O=C(CCS(=O)(=O)c1ccc(Br)cc1)N1CC(=O)N(CCc2ccccc2)C(=O)C1 | 94.7
O=C(COc1ccccc1F)OCC(=O)N1CCCCC1 | 103.0
O=C(NCc1ccccc1)c1ccc2nc(-c3cccs3)c(-c3cccs3)nc2c1 | 101.2
CNc1ccccc1C(=O)NC1CCCCC1 | 97.2
CC(/C=C/C(=O)NO)=C\[C@@H](C)C(=O)c1ccc(N(C)C)cc1 | 99.7
COC(=O)c1c(NC(=O)/C=C/c2ccc(OC)cc2)sc(C)c1C | 99.0
COc1ccc(N2CCN(C(=O)CNC(=O)Cn3c(C)cc4ccccc4c3=O)CC2)cc1 | 94.6
N#CCCN(C(=O)c1ccc2c(=O)n3c(nc2c1)CCCC3)c1ccccc1 | 99.7
CCOC(=O)c1ccc(N=Cc2ccccc2O)cc1 | 100.0
CCOC(=O)c1sc2cc(OC)ccc2c1Cl | 92.0
NC(=O)C1CCN(C(=O)c2cccs2)CC1 | 101.0
O=c1c2ccccc2nc(SCc2cccc(F)c2)n1C1CC1 | 98.6
COc1cccc(CC(=O)NC2CCN(c3ncc(C(F)(F)F)cc3Cl)CC2)c1 | 102.6
O=S(=O)(CCSCc1csc2ccccc12)c1ccc(Cl)cc1Cl | 94.2

(cont.)
Molecule | VACV E9 pol inh
CCOC(=O)CSc1nnc(-c2ccccc2)c(=O)n1-c1ccccc1 | 104.3
COc1cccc(C(=O)c2c[nH]c(C(=O)NCc3cccs3)c2)c1 | 108.4
c1ccc(Nc2c(-c3ccc(N4CCOCC4)cc3)nc3ccccn23)cc1 | 105.7
CCC1=NN(C(=O)COc2ccc(Cl)c(C)c2)C(O)(C(F)(F)F)C1 (stereo not given) | 100.2
O=C(CSc1nc2ccccc2c(=O)[nH]1)N1CCOCC1 | 96.7
Cc1ccc2[nH]c3c(=O)n(CCN4CCCCC4C)cnc3c2c1 (stereo not given) | 93.3
N#CC1=C2CCCCC2C(c2cccc(Br)c2)C(C#N)(C#N)C1=O (stereo not given) | 99.2
Cc1ccc(C(=O)c2ccc(C)cc2)cc1 | 103.6
CCC(C)N1C(=O)C2C(C(=O)Nc3cccc(Cl)c3)C3C=CC2(O3)C1C(=O)NC1CCCCC1 (stereo not given) | 101.7
COc1ccc(C=NCC2OCCc3ccccc32)cc1OC (stereo not given) | 100.0
Clc1nc(-c2ccccc2)nc2sc3c(c12)CCCC3 | 99.9
O=C(NCCc1ccc(Cl)cc1)C(c1ccccc1)c1ccccc1 | 97.5
CCOC(=O)N1CCN(C(=O)CSc2ccc(-c3cccs3)nn2)CC1 | 103.2
COC(=O)c1ccc2c(c1)C(=O)/C(=C/c1ccc(C)o1)O2 | 98.9
CCOc1nc(C)ccc1-c1noc(-c2cccc(C)c2)n1 | 101.7

Additional structures
Molecule | VACV E9 pol inh
CN1CCN(c2ncnc3sc(-c4ccccc4)cc23)CC1 | 50.4*
CCC(C)c1ccccc1NC(=O)COC(=O)Cc1ccsc1 (stereo not given) | 104.6
Cc1cc(Nc2ccc(F)c(Cl)c2)nc(NC(=O)C(C)(C)C)n1 | 89.1
CCSc1sc(CN(C)C)cc1/C=N/O | 100.4
NC(=O)COC(=O)C1c2ccccc2Oc2ccccc21 | 99.3
CCC(C)C(=O)N1CCN(c2cccc(Cl)c2)CC1 (stereo not given) | 95.9
NC(=O)Cc1nc(-c2ccccc2)cs1 | 101.1
CCOc1ccc(/C(O)=C/C(=O)C(=O)OC)cc1 | 99.1
COc1cccc(/C=C/C(=O)NCc2csc(-c3ccccc3)n2)c1 | 91.0
O=C(Sc1nc2ccccc2o1)c1cccc(Cl)c1 | 99.0
CC(C)CNc1oc(-c2ccccc2)nc1C#N | 97.7
COc1ccc(CCNC(=O)Cn2ccc3ccccc3c2=O)cc1OC | 102.0
Cc1ccc(CS(=O)(=O)Cc2ccc(C(=O)N3CCc4ccccc4C3)o2)cc1 | 100.6
Cc1cc(N2CCN(c3ccccc3)CC2)n2nc(C)c(-c3ccc(Cl)cc3)c2n1 | 116.7
CCc1cccc(CC)c1N(COC)C(=O)Cn1c(C(C)O)nc2ccccc21 (stereo not given) | 100.8

(further entries)
Molecule | VACV E9 pol inh
CCCCN(CC)C(=O)c1nn(-c2ccc(OC)cc2)c(=O)c2ccccc12 | 111.5
CCN(CC)c1ccc(C(=O)OCC(=O)N2C(C)CCCC2C)cc1 (stereo not given) | 105.3
FC(F)(F)c1ccc(C2=NCCc3sccc32)cc1 | 98.9
Cc1nn(C)c(C)c1Cc1ccc(O)cc1 | 124.5
O=C1/C(=C/c2cccnc2)SC(=S)N1c1ccc2c(c1)OCCO2 | 100.7
O=C1C2C3C=CC(C3)C2C(=O)N1Cc1ccccc1Cl (stereo not given) | 93.7
CCc1ccc(NC(=O)N(Cc2c[nH]c3ccccc23)C(C)C)cc1 | 84.1
Cc1ccccc1Cn1cnc2sc(C)c(C)c2c1=O | 96.8
O=C(CSc1cccc[n+]1[O-])c1ccc(Cl)s1 | 104.9
Cc1nc(=O)c(-c2ccccc2)c(C)n1-c1ccc(C(=O)O)cc1 | 100.0
CCOC(=O)CSc1nc2nccnc2c(=O)n1CCc1ccccc1 | 99.9
N=Cc1cc(-c2ccccc2)oc1S | 97.9
CCNC(=S)Nc1c(C)cccc1C | 100.4
O=C(NC1=C(C(=O)c2ccccc2)N(Cc2ccccc2)S(=O)(=O)c2ccccc21)c1ccccc1 | 100.2
CC(C)(C)c1nnc(-c2cccc(NS(=O)(=O)c3ccc(-c4ccon4)s3)c2)o1 | 98.8

Further entries follow.
Molecule | VACV E9 pol inh
CC(O)c1nc2ccccc2n1Cc1ccc(Cl)cc1Cl (stereo not given) | 97.1
COC(=O)Cn1cnc2c(nnn2Cc2ccc(Cl)cc2)c1=O | 100.1
CC1CC(C)CN(C(=O)c2cc(-c3ccccn3)nc3ccccc23)C1 (stereo not given) | 99.1
O=C1c2ccccc2C(=O)N1CC(=O)N1c2ccccc2Sc2ccccc21 | 98.4
CCC1SC(CC)C(=O)N(CC(=O)NC2CCCCC2)C1=O (stereo not given) | 102.6
Cc1ccccc1/C=N/n1c(C)cc(C)c(C#N)c1=O | 100.0
COc1cccc(CNC2CCCC2)c1 | 104.0
C=CCn1c(=O)c2ccc(C(=O)NCc3ccccc3)cc2n(Cc2ccccc2C#N)c1=O | 100.5
COc1ccc(C2C(C(=O)O)c3ccccc3C(=O)N2Cc2ccc(Cl)cc2)cc1 (stereo not given) | 78.6
CCOC(=O)c1c(CN2CCOCC2)n(C)c2ccc(O)cc12 | 98.7
CCC(Sc1ncccc1C(=O)OC(C)C)C(=O)NCc1ccco1 (stereo not given) | 105.0
c1ccc(CCSCc2nc3ccccc3[nH]2)cc1 | 102.8
CC1CCN(S(=O)(=O)c2ccc(NC(=O)c3ccc(C(C)(C)C)cc3)cc2)CC1 | 99.1
CCN1CCN(CCNC(=O)Nc2ccc(Cl)cc2)CC1 | 100.6
O=C(O)c1ccc(NC(=O)c2ccc[n+]([O-])c2)cc1 | 101.6

Additional entries follow:
Molecule | VACV E9 pol inh
CCOC(=O)c1cc(CN2CCOCC2)oc1-c1ccccc1 | 109.3
Cc1nc(C)c(Oc2ccc(Cl)cc2Cl)c(N2CCCCC2)n1 | 101.3
O=C1Cc2ccc(F)cc2CC1C1=Cc2ccc(F)cc2CC1 (stereo not given) | 98.2
COc1ccc(-n2ccc3ccccc32)cc1 | 99.1
COc1cccc2c3c(c(C)nc12)CCS3 | 83.7
CSc1cc(-c2ccc(Cl)cc2)c(C(=O)O)s1 | 91.8
FC(F)(F)c1nc2ccccc2n1Cc1ccccc1 | 92.8
Cc1cc(C)c2c(c1)/C(=c1/sc3n(c1=O)CN(c1cccc(Br)c1)CN=3)C(=O)N2 | 99.8
CC(=O)N(CN1C(=O)C2CC=CCC2C1=O)c1ccccc1 (stereo not given) | 101.0
COc1ncccc1C(=O)Nc1ccc(F)cc1F | 104.5
CCc1cccc(NC(=O)C2c3ccccc3C(=O)N(C)C2c2cn(C)c3ccccc23)c1 (stereo not given) | 107.8
O=C(Nc1ccc(Br)cc1)C12CCN(CC1)Cc1ccccc12 | 99.5
N#Cc1c(NC(=S)Nc2ccccc2)sc2c1CCC2 | 100.7
O=C(O)CC1Sc2ccccc2NC1=O (stereo not given) | 103.5
CCC(=O)c1c[nH]c(C(=O)NCc2cccnc2)c1 | 110.3

Fetched by structure from the entries so far (four):
Molecule | VACV E9 pol inh
COc1ncccc1C(=O)Nc1ccc(F)cc1F | 104.5
N#Cc1c(NC(=S)Nc2ccccc2)sc2c1CCC2 | 100.7
CCc1cccc(NC(=O)C2c3ccccc3C(=O)N(C)C2c2cn(C)c3ccccc23)c1 (stereo not given) | 107.8
CC(=O)N(CN1C(=O)C2CC=CCC2C1=O)c1ccccc1 (stereo not given) | 101.0

Next part:
Molecule | VACV E9 pol inh
O=C(CN1C(=O)C(c2ccccc2)Oc2cccnc21)NCCCN1CCCCC1 (stereo not given) | 93.9
CC(=O)Nc1sc2c(c1CN1CCN(c3ccccn3)CC1)CCCC2 | 100.7
Cc1cc(C)cc(CC2CC(=O)N(CCc3ccc4c(c3)OCO4)C2=O)c1 (stereo not given) | 100.0
CCOC(=O)c1cn(-c2ccc(Cl)cc2)nc1C(F)(F)F | 100.0
CN(C)/C=C/C=C1\CCc2ccccc2C1=O | 84.6
O=C(CCn1c(=O)oc2ccccc21)Sc1ccc(Cl)cc1Cl | 99.0
O=C(NC(=O)c1cn2cc(C(F)(F)F)cc(Cl)c2n1)Nc1ccc(Cl)cc1 | 108.0
CCOC(Cn1c(SCC#N)nc2ccccc2c1=O)OCC | 102.0
Cc1ccc(N=C2C(=O)N(C)c3ccccc32)cc1 | 93.3
COc1ccccc1NC(=O)CSc1ncnc2c1nnn2Cc1ccccc1 | 102.8
CSc1nnc(CNC(=O)OC(C)(C)C)n1C | 97.1
COc1ccc(CCN2C(=O)CC(Sc3ccccc3C(=O)O)C2=O)cc1OC (stereo not given) | 100.0
Cc1ccccc1Nc1nc2ccccc2s1 | 96.9
O=C(Sc1ccc(C(F)(F)F)cn1)/C(=C\c1cccs1)c1ccsc1 | 101.7
CCN(CC)CCn1c(=N)n(Cc2ccc(C(C)(C)C)cc2)c2ccccc21 | 94.4

Next section:
Molecule | VACV E9 pol inh
Cc1cc(NC(=O)c2coc3ccccc3c2=O)no1 | 101.3
CC(C)C(=O)Nc1nnc(C2CC2)s1 | 80.4
O=C(COC(=O)COc1ccc(Cl)cc1)NC1CCCCC1 | 105.2
COc1ccc(OC)c(S(=O)(=O)n2ccnc2C)c1 | 99.5
FC(F)(F)c1nc(SCc2ccc(Cl)cc2)n[nH]1 | 97.9
CN(C)C(=O)c1cc(Cl)ccc1Cl | 93.2
COc1ccc2cc([C@H](C)C(=O)O)ccc2c1 | 102.3
CC(=O)n1nc(-c2cccnc2)nc1N | 91.4
COc1cc(OCc2ccccc2)ccc1CN1CCC(C(=O)c2ccc(F)cc2)CC1 | 91.5
CCCOC(=O)Nc1ccc(Cl)cc1C(=O)c1ccccc1 | 100.1
